26S disassembly = blocks ATP-dependent breakdown of the yeast 26S proteasome. hit rate 0.2% among 24,000. inhibition of disassembly, % (concentration not given with the values). anti-FLAG beads, GFP-proteasome disassembly, flow cytometry;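 active = above 40%; inconclusive = likely self-fluorescent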;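 also: plate controls were ATP control with full disassembly for no effect and ATP-gamma-S intact proteasomes for full effect; higher percent means more bead fluorescence retained so stronger block of disassembly; stock transfer was 100 nL into about 10 µL; wells with too few beads may also be inconclusive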
VCAM-1 rise = enhancers of VCAM-1 display on endothelial cells, cell-based, plate reader, pooled HUVEC, TNFa stimulus (AID 455); HUVEC TNFa-induced VCAM-1 immunofluorescence, plate reader; numbers were filed only for top-ranked candidate wells; augmentation, % at 5 µM; hit rate 0.2% among 10,000;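 active = a compound raising TNF-alpha-driven VCAM-1 surface staining, with its hit status upheld on visual or statistical review; inactive = the rest, including hits rejected on review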;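 also: 0% = TNFa with vehicle and 100% = strongest image-checked hit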
Numbers without * were called inactive; i = inactive; u = inconclusive; x = no result given. The list is partial. The share of hits here may be higher or lower than overall.

26S disassembly,VCAM-1 rise,structure
0.4,i,CC(C)OC(=O)CSc1nnc(-c2ccco2)n1N
-0.2,i,CCc1ncc(C(O)c2cccc(OC)c2OC)n1C (configuration not stated)
-1.9,i,CCc1cn([C@H]2C[C@H](O)[C@@H](CO)O2)c(=O)[nH]c1=O
-0.5,x,Cc1ccc(NC(=O)C2CCCN(S(=O)(=O)c3ccc4c(c3)oc(=O)n4C)C2)nc1 (configuration not stated)
1.1,x,Cc1ccc(S(=O)(=O)NC(C)C(c2cccs2)N2CCN(C)CC2)cc1 (configuration not stated)
0.1,i,CCOC(=O)[C@H](CCc1ccccc1)N[C@@H](C)C(=O)N1CCC[C@H]1C(=O)O
-1.9,x,O=C(C1CCN(S(=O)(=O)c2cccc3nsnc23)CC1)N1CCN(c2ccccc2F)CC1
0.2,i,CC(=O)Nc1c(O)n(C)c2ccccc12
-1.2,x,CC1=C(C(=O)OC(C)C)C(c2c[nH]c3ccccc23)n2ncnc2N1 (configuration not stated)
0.1,x,CCS(=O)(=O)N1CCC(C(=O)N2CCN(c3ccccc3)CC2)CC1
0.8,i,CC(C)CCn1c(SCC#N)nc2c(sc3ccccc32)c1=O
0.0,x,Cc1nccc2[nH]c(=O)c(C(=O)NCCCN(C)C3CCCCC3)cc12

Brought forward from above: 5 entries, then new ones.
26S disassembly,VCAM-1 rise,structure
0.2,i,CC(=O)Nc1c(O)n(C)c2ccccc12
-1.2,x,CC1=C(C(=O)OC(C)C)C(c2c[nH]c3ccccc23)n2ncnc2N1 (configuration not stated)
0.1,x,CCS(=O)(=O)N1CCC(C(=O)N2CCN(c3ccccc3)CC2)CC1
0.8,i,CC(C)CCn1c(SCC#N)nc2c(sc3ccccc32)c1=O
0.0,x,Cc1nccc2[nH]c(=O)c(C(=O)NCCCN(C)C3CCCCC3)cc12
2.2,x,CCOC(=O)N1CCC(=C(C#N)C(=O)Nc2cc(OC)ccc2OC)CC1
-1.2,x,Cc1ccc(NC2c3ncccc3C(=O)N2Cc2ccc(F)cc2)cc1 (configuration not stated)
-1.3,i,CCCC(NC(=O)c1ccccc1)c1nc2ccccc2n1Cc1ccc(C(=O)OC)o1 (configuration not stated)
0.3,x,O=C(NC1CCCCC1)C1CCN(S(=O)(=O)c2cccc3cccnc23)CC1
2.0,x,CC(=O)c1cccc(NC(=O)CN(c2ccc(C)cc2)S(=O)(=O)c2cccc3nonc23)c1
-3.5,i,COC(=O)COc1nc(C)c(Br)c(OC)n1
3.0,x,O=C(O)CCN(CCC(=O)O)S(=O)(=O)c1ccccc1
-1.6,x,CCOC(=O)CN1CC23C=CC(O2)C(C(=O)N2CCN(c4ccc(F)cc4)CC2)C3C1=O (configuration not stated)
-0.4,i,O=C(Cn1cc2c(n1)CCCCC2)N1CCc2ccccc2C1
-1.7,x,CC1CCCCN1C(=O)Cn1c(=O)n(CCC(=O)NCc2ccco2)c(=O)c2sccc21 (configuration not stated)
-0.2,i,CCOC(=O)c1c(C)oc2ccc(NS(=O)(=O)c3ccc4c5c(cccc35)C(=O)N4)cc12
0.9,x,CCCOC(=O)NC(CC)COC(=O)Nc1cc(C)ccc1C (configuration not stated)

(next part)
26S disassembly,VCAM-1 rise,structure
0.2,x,Cc1ccc(-n2nc3c(c2NC(=O)c2ccc(OC(C)C)cc2)CS(=O)C3)cc1 (configuration not stated)
3.0,x,Cc1ccc(CS(=O)(=O)CCC(=O)NCc2ccccn2)cc1
-2.4,i,CC1=C(C(=O)OCCOC(C)C)C(c2cc3c(cc2Br)OCO3)C2=C(CCCC2=O)N1 (configuration not stated)
-0.7,x,COc1ccccc1C1CC(c2ccc(Cl)cc2Cl)Nc2nc(N)nn21 (configuration not stated)
-1.5,i,COc1ccc(N2CCN(C(c3cccc(OC)c3OC)c3nnnn3C3CCCC3)CC2)cc1 (configuration not stated)
4.5,x,O=C(CC1N=C2c3ccccc3N=C(SCc3ccc(F)cc3)N2C1=O)NCc1ccco1 (configuration not stated)
-1.4,x,CC(C)(C)OC(=O)N1CCC(C(=O)O)CC1
1.6,x,COc1ccc(-c2nnc3ccc(SCC(N)=O)nn23)cc1OC
-1.3,i,CC(C)CCNC(=O)NC(=O)CSc1nnc(-c2ccccc2Br)o1
5.1,i,O=c1oc2ccccc2n1CCn1c2ccccc2c2nc3ccccc3nc21
3.3,i,Cc1nc(SCC(=O)CC(=O)OC(C)C)c(C#N)c(C)c1C
-2.4,i,Cc1ccc2[nH]c3c(=O)n(CCCN4CCN(C)CC4)cnc3c2c1

Filtered by structure: the entries above containing a cyano group (three)
26S disassembly,VCAM-1 rise,structure
0.8,i,CC(C)CCn1c(SCC#N)nc2c(sc3ccccc32)c1=O
2.2,x,CCOC(=O)N1CCC(=C(C#N)C(=O)Nc2cc(OC)ccc2OC)CC1
3.3,i,Cc1nc(SCC(=O)CC(=O)OC(C)C)c(C#N)c(C)c1C

Continued:
26S disassembly,VCAM-1 rise,structure
2.0,i,CC(=O)Nc1ccc(S(=O)(=O)N(C2=NCC(C)S2)c2ccccc2)cc1 (configuration not stated)
-0.3,i,CCOc1ccc(NC(=O)CN2C(=O)C3CCCN3C2=O)cc1 (configuration not stated)
-2.6,x,COc1cc2c(cc1O)C(SC)=NC(C)(C)C2
-0.2,x,CCOC(=O)N1CCN(C(=O)c2ccc3c(=O)n(Cc4ccccc4)c(=S)[nH]c3c2)CC1
-0.1,x,CCOc1ccc(NC(=O)CN2CCN(CC(=O)Nc3ccc4c(c3)OCCO4)CC2)cc1
0.0,x,O=S(=O)(c1ccc(Br)cc1)N1CCn2c(nc3ccccc32)C1
1.4,x,CSc1nnc(Cc2cc(=O)[nH]c(=O)[nH]2)n1-c1cccc(C)c1
0.0,i,O=C(COc1ccccc1Cl)N1CCCC1
0.4,i,CCn1c(CNc2ccc(OC)cc2)nnc1SCC(=O)c1ccc(OC)cc1
0.0,i,O=C1C2CC=C(Cl)CC2C(=O)N1CNc1ccccn1 (configuration not stated)
-0.7,x,CCOc1ccc(OCc2ccc(C(=O)O)o2)cc1
-0.6,x,CCOC(=O)N1CCC(NC(=O)CN2C(=O)COc3ccc(C(C)(C)C)cc32)CC1

Other compounds:
26S disassembly,VCAM-1 rise,structure
1.9,x,CCCS(=O)(=O)N1CCC(C(=O)NCCN2CCC(Cc3ccccc3)CC2)CC1
0.3,x,COc1ccc(S(=O)(=O)NC2(C(F)(F)F)N=C3SCCN3C2=O)cc1 (configuration not stated)
-2.1,i,OCC#CCSc1nnc(-c2ccccc2Br)o1
1.3,x,CCOc1ccc(-n2c(=O)c3sccc3n(CC(=O)NCc3ccco3)c2=O)cc1
2.5,i,CCN(CC)CCN1C(=O)C(=O)/C(=C(/O)c2ccc(OC(C)C)cc2)C1c1ccncc1 (configuration not stated)
-0.1,i,Cc1cc(C)cc(NC(=O)c2nnn(Cc3cc(C)ccc3C)c2N)c1
-5.9,x,O=C1c2ccccc2C(Nc2ccccc2F)N1c1cccnc1 (configuration not stated)
1.1,i,Cc1ccc(Cn2nnc3c(=O)[nH]c(C4CCN(C(=O)c5cccs5)CC4)nc32)cc1
-0.4,x,COc1ccc(N2CCN(C(=O)C3CCCN(S(=O)(=O)c4cccc5cccnc45)C3)CC2)cc1 (configuration not stated)
17,x,O=C1CCN2C=Nc3cccc4ccc1c2c34
1.2,i,O=C(O)CSc1ncn[nH]1
u,x,O=C(NCCc1ccccc1)C1CCCN(S(=O)(=O)c2cccc3nsnc23)C1 (configuration not stated)

Carrying on.
26S disassembly,VCAM-1 rise,structure
-5.3,i,O=C(CSc1nnnn1-c1ccccc1)Nc1ccc(Cl)cc1
0.7,i,CCCCN(CC)CCNC(=O)c1cc2c(C)nc3ccccc3c2o1
-1.0,x,COc1ccc(Cl)cc1S(=O)(=O)N1CCN(C(=O)c2cc(OC)c(OC)c(OC)c2)CC1
-1.0,i,CCc1nnc(NC(=O)CCC(=O)Nc2ccccc2)s1
0.1,i,O=C(NCc1ccc2c(c1)OCO2)c1cc2n(n1)C(C(F)(F)F)CC(c1ccc3c(c1)OCO3)N2 (configuration not stated)
4.9,x,COc1cc2nc(=S)n3[nH]c(CCn4c(C)nc5ccccc54)nc3c2cc1OC
0.8,x,CC1=C(C#N)C(Nc2cccc(C)n2)(C(F)(F)F)C(=O)N1 (configuration not stated)
-7.8,i,C=CCNc1nc2c(c(=O)n(C)c(=O)n2C)n1CCCCCC
0.2,x,CCn1cc(C(=O)NCC2CCCO2)c(=O)c2cc(S(=O)(=O)N3CCC(C)CC3)ccc21 (configuration not stated)
0.4,20,O=C(c1ccc(-c2cccc(C(F)(F)F)c2)o1)N1CCOCC1
4.1,x,CC1Cc2ccccc2N1C(=O)C1CCCN(S(=O)(=O)c2cccc3nsnc23)C1 (configuration not stated)
-1.1,x,COc1ccc(S(=O)(=O)NCCC(=O)NCc2ccc(F)cc2)cc1

Whole records from above. Screens in order: 26S disassembly | VCAM-1 rise
CCc1cn([C@H]2C[C@H](O)[C@@H](CO)O2)c(=O)[nH]c1=O is listed as -1.9 | i
CCOC(=O)N1CCC(=C(C#N)C(=O)Nc2cc(OC)ccc2OC)CC1 is listed as 2.2 | x

The results go on:
26S disassembly,VCAM-1 rise,structure
-1.5,x,CC(C)CC(NC=C1C(=O)OC(C)(C)OC1=O)C(=O)O (configuration not stated)
0.3,x,CCOC(=O)Cn1c(=O)oc2cc(S(=O)(=O)N(C)Cc3ccco3)ccc21
-0.1,x,COC(=O)c1ccc(CSc2nnc(CNC(=O)COc3ccc(Cl)cc3)o2)o1
0.1,x,O=C(NCc1cccs1)c1cc(-c2cccs2)on1
-3.6,i,CN1CCN(c2ccc(Cl)cc2NC(=O)c2cccc(S(=O)(=O)N(C)C)c2)CC1
0.5,x,CCc1ccc(C(=O)CC2(O)C(=O)N(CN3CCOCC3)c3ccccc32)cc1 (configuration not stated)
-2.6,x,Cc1ccc(CNC(=O)c2sccc2-n2cccc2)cc1
-0.3,i,CCCCOc1ccc(N(CC(=O)NC2CCCC2)C(=O)CCC(=O)Nc2ccccn2)cc1
-6.3,i,C1CCN=C(Nc2nc3c(s2)CCCC3)CC1
1.3,i,C/C(N)=C(/C#N)C(=O)COC(=O)c1cc(C)n(-c2ccc(F)cc2)c1C
-1.8,x,O=C1c2ccccc2C(Nc2ccc3c(c2)OCO3)N1Cc1ccco1 (configuration not stated)
-0.1,x,Cc1ccc(-c2nc(CSCC(=O)N3CCOCC3)c(C)o2)cc1

Further records.
26S disassembly,VCAM-1 rise,structure
1.9,i,O=C(CCN1CCN(CCO)CC1)Nc1ccc(OCc2ccccc2)cc1
0.7,x,COc1ccc2c(c1)CCc1c(C(=O)N3CCOCC3)noc1-2
-0.5,x,CCc1ccccc1N(C(=O)c1cccs1)C1C=CS(=O)(=O)C1 (configuration not stated)
1.1,x,Cc1cccc(N2CCN(C(=O)c3cc4c(C)nc5ccccc5c4o3)CC2)c1C
-0.2,i,COc1ccc(CN2C(=O)c3ccccc3C2C(=O)NC2CCCC2)c(OC)c1 (configuration not stated)
-1.2,x,COc1ccc(N2CCN(Cc3nc4c(c(=O)[nH]c(=O)n4C)n3CCCc3ccccc3)CC2)cc1
-1.5,x,CCS(=O)(=O)N1CCC(C(=O)NCCCN2CCCC2)CC1
-0.4,i,O=c1c2ccccc2cnn1-c1nc2ccccc2s1
-1.4,i,CC(=O)CCc1c(C)[nH]c2ccccc2c1=O
0.0,x,COCCNC(=O)CSc1nc2ccc(N3CCOCC3)cc2c(=O)n1CCc1ccccc1
2.8,x,CCOC(=O)c1cn(CC)c2ccc(S(=O)(=O)N3CCC(C)CC3)cc2c1=O
0.3,i,Cc1cc(NC(=O)C2=C(O)c3ccccc3S(=O)(=O)N2C)no1

Carrying on.
26S disassembly,VCAM-1 rise,structure
1.2,i,CCC(C)Nc1nc2c(c(=O)n(C)c(=O)n2C)n1Cc1ccc(F)cc1 (configuration not stated)
1.7,x,Cc1nnc(SCC(=O)Nc2ccc3c(c2)COC3=O)n1-c1ccccc1
0.8,x,CCOc1cc2[nH]c(=S)n(CCCCC(=O)NCc3ccco3)c(=O)c2cc1OCC
0.6,x,O=C(c1cc(-c2ccco2)on1)N1CCCc2ccccc21
-1.0,x,Cc1ccc(C)c(N2CCN(C(=O)Cn3cccc3)CC2)c1
-0.1,x,CCCOC1(NC(=O)c2ccccc2)C(C)=CC(=O)C=C1C
-1.0,x,COc1ccccc1C(=O)Oc1cc(N)n(S(=O)(=O)c2ccc(C)cc2)n1
-0.9,x,CC1CCCC(NC(=O)c2n[nH]c(=O)c3ccccc23)C1C (configuration not stated)
1.5,x,CC1(C)CC(=O)C2=C(C1)N(CCN1CCOCC1)C1=C(C(=O)CC(C)(C)C1)C2c1ccc(Cl)cc1
0.1,x,COc1ccc(C)cc1NC(=O)Cn1cnc2sc(C)c(S(=O)(=O)N3CCOCC3)c2c1=O
-1.7,x,CCOCCCNC(=O)CN1C(=O)C(CC)Oc2ccccc21 (configuration not stated)
-1.8,x,CC(=O)N1CCN=C1SCc1ccccc1

Part of the list above, with values under each structure:
Below each compound – 26S disassembly	VCAM-1 rise
- CCC(C)Nc1nc2c(c(=O)n(C)c(=O)n2C)n1Cc1ccc(F)cc1 (configuration not stated)
    1.2	i
- Cc1nnc(SCC(=O)Nc2ccc3c(c2)COC3=O)n1-c1ccccc1
    1.7	x

The listing continues.
26S disassembly,VCAM-1 rise,structure
0.6,i,O=C(Nc1nc(-c2ccccn2)cs1)C1CC1
-1.2,x,Cc1ccc(-c2noc(CCC(=O)N(C)c3ccccc3C)n2)cc1
0.2,i,COc1cc2c(cc1OC)C(/C(C#N)=N\O)=NC(C)(C)C2
0.4,i,CC(C)(C)C(=O)Cn1c(=N)n(Cc2ccccc2)c2ccccc21

Screens deposited in PubChem by several laboratories.
